PrP UTR inh: inhibition of PrP 5' UTR reporter expression | cell-based PrP 5' UTR mRNA reporter, plate reader | inhibition, % (test concentration not listed) | hit rate 0.35% among 340,000 | AID 488862, 2010;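 active = every replicate at 50% or more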;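 note: 0 = median of the neutral control wells; tested in H4 reporter cells; numbers are from one replicate; inactives centre near -14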
BJeLR lethal: MLPCN primary cell-based screen for lethality selective to Ras in HRASV12 cells | inhibition, % (no concentration beside the values) | hit rate 0.17% among 300,000 | BJeLR (HRASV12) viability, CellTiter-Glo ATP luminescence, 48 h; reference of the scale not given here | AID 1554, 2009;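 active = replicate mean above 50%; inconclusive = above 50% but judged a plate artefact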;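 note: 50 nL library stock added to about 25 µL; numbers are from one replicate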
ugtP null kill: growth inhibition of ugtP-null S. aureus, primary screen, RN4220 ugtP deletion, OD600. 16 h; some inactives read as strong as hits. growth inhibition, % (no concentration beside the values). hit rate 0.54% among 330,000. AID 1259309, 2017;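 active = z-score under -3 and OD600 up to 0.15 on both plates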;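 note: plate controls were untreated wells for no effect and antibiotic for full effect; wells of about 80 µL received 100 nL stock; the first replicate is given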
Mtb hypoxia rep: PubChem AID 1159583; hit rate 0.1% among 300,000; M. tuberculosis hypoxia-regulated fluorescent reporter, fluorescence; fluorescence inhibition, % (no concentration beside the values);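 active = 35 to 45% if threefold the growth effect, above 45% if 1.5-fold the growth effect; inactive = the rest, general growth blockers included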;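 note: wells of about 50 µL received 100 nL stock; 0% = vehicle wells and 100% = reference inhibitor wells; whole bacteria with a GFP reporter of the hypoxia response; strong numbers were not always called active; many hits fall short of the cut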
Bead autofluor: compound fluorescence in toxin protease inhibitor counterscreen; hit rate 3.1% among 360,000; compound autofluorescence counterscreen, microsphere flow cytometry; stronger effect = higher value; fluorescence intensity (concentration not given with the values);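 active = at least 3 SD above the mean of all compounds, about 16000 in these data; inconclusive = too few beads counted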;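 note: 100 nL of 1 mM stock went into each well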
Sa RN4220 lethal: growth inhibition of S. aureus RN4220, primary screen, OD600. 16 h. inhibition, % (no concentration beside the values). hit rate 0.33% among 330,000;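 active = z-score of -3 or lower and OD600 up to 0.18 on both plates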;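 note: plate controls were untreated cells for no effect and reference antibiotic for full effect; stock transfer was 100 nL into about 80 µL; one replicate is shown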
Mtb hypoxia rep growth: further read-out of Mtb hypoxia rep, marked with its call; growth inhibition, %; measured here: M. tuberculosis growth (absorbance);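 0% = vehicle and 100% = reference antibiotic; read after six days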
* = called active by the depositor; ? = inconclusive; . = no result given.

#1 COc1ccc(S(=O)(=O)N2CCOCC2)cc1NC(=O)CN1CCC(Cc2ccccc2)CC1
#2 CCC(C)NC(=O)c1c(N)n(Cc2ccc3c(c2)OCO3)c2nc3ccccc3nc12 (configuration not stated)
#3 O=S(=O)(Nc1ccc2c(c1)OCCO2)c1cccc(F)c1
#4 O=C(Nc1ccc(Br)cc1)c1ccc(-n2cnnn2)cc1
#5 COC(=O)c1ccc(C(=O)OC)c(NC(=O)CSc2ccccn2)c1
#6 O=C(Nc1ccc2c(c1)CCCN2C(=O)c1ccccc1)c1ccccc1
#7 Cc1ccccc1CCN(C(=O)Cn1nnc2ccccc21)C(C(=O)NC(C)(C)C)c1ccsc1 (configuration not stated)
#8 O=C(N/N=C/c1ccc(-c2ccc([N+](=O)[O-])cc2)o1)[C@H]1C[C@@H]1c1ccccc1
screen / no. | 1 | 2 | 3 | 4 | 5 | 6 | 7 | 8
PrP UTR inh | -5 | -5 | -6 | -26 | -4 | -37 | -10 | -1
BJeLR lethal | 1 | -14 | -13 | -3 | -2 | 17 | 6 | 1
ugtP null kill | -11 | 5 | 12 | 0 | -11 | -5 | 6 | .
Mtb hypoxia rep | -8 | . | 8 | 8 | 0 | 2 | -2 | .
Mtb hypoxia rep growth | 0 | . | 14 | 6 | 10 | 2 | -7 | .
Bead autofluor | 2548 | 4797 | 3672 | 3554 | 9829 | 6316 | 7675 | 5575
Sa RN4220 lethal | -5.6 | -7.6 | 6.3 | 2.0 | -2.1 | -0.5 | 3.6 | .

#9 CCN(C(=O)COC(=O)c1ccc(S(=O)(=O)N2CCCc3ccccc32)cc1)C1CCS(=O)(=O)C1 (configuration not stated)
#10 CN(CCc1ccccc1)c1ccc([N+](=O)[O-])cn1
#11 CCCNC(=O)OCC1OC(CCON=CC(NS(=O)(=O)c2ccc(C)cc2)C(C)C=CCC(=O)OC)C=CC1Oc1ccc(OC)cc1 (configuration not stated)
#12 CCCCCCC(=O)O
#13 CC(C)(C)c1cc(NC(=O)Nc2ccc(Cl)cc2Cl)no1
#14 COc1ccc(-n2c(=S)[nH]c3cc(C(=O)NCc4ccc(F)cc4)ccc3c2=O)c(OC)c1
#15 O=C(NCCCNCCCNC(=O)c1ccc(C=NO)nc1)c1ccc(C=NO)nc1
#16 O=[N+]([O-])c1ccc(N=Nc2ncc[nH]2)cc1
screen / no. | 9 | 10 | 11 | 12 | 13 | 14 | 15 | 16
PrP UTR inh | -5 | -29 | . | -3 | -11 | 9 | . | 3
BJeLR lethal | -2 | 4 | . | . | -8 | 3 | . | 74*
ugtP null kill | 8 | 13 | -16 | 6 | -28 | 25 | -1 | 10
Mtb hypoxia rep | 13 | 6 | 14 | . | 1 | -10 | 3 | .
Mtb hypoxia rep growth | -2 | 12 | 7 | . | -2 | -3 | 1 | .
Bead autofluor | 2551 | 3159 | . | 4295 | 3213 | 5926 | . | 3083
Sa RN4220 lethal | 3.1 | 8.6 | 8.3 | 2.9 | -2.1 | -5.8 | 2.7 | 19

#17 Cc1cc(NCCCn2ccnc2)n2c(nc3ccccc32)c1C#N
#18 COc1ccc(N2C(=O)C3CCCN3C2c2ccccc2OC)cc1 (configuration not stated)
#19 CC(=O)Nc1ccccc1C(=O)C(=O)Nc1ccc(C)c(C)c1
#20 COc1ccc(OC)c(NC(=O)CC2SC(=NCc3ccccc3)NC2=O)c1 (configuration not stated)
#21 CCC(=O)N1N=C(c2ccc(C)cc2)CC1c1ccco1 (configuration not stated)
#22 CC(=O)NC1(c2nnnn2CCOC(=O)Nc2ccc(Cl)cc2)CCCCC1
#23 COc1cccc(C2C3=C(N=C4SCC(=O)N42)c2ccccc2CC3)c1OC (configuration not stated)
#24 CN(C)S(=O)(=O)c1cccc(NC(=O)c2ccncc2)c1
screen / no. | 17 | 18 | 19 | 20 | 21 | 22 | 23 | 24
PrP UTR inh | -92 | 6 | -101 | -19 | -32 | -21 | -11 | -21
BJeLR lethal | 5 | -9 | 1 | 5 | -8 | . | -3 | 7
ugtP null kill | 2 | -1 | -1 | 5 | -5 | -12 | 5 | -3
Mtb hypoxia rep | 6 | . | -2 | 12 | 4 | . | -5 | 1
Mtb hypoxia rep growth | 5 | . | 6 | 0 | 12 | . | 12 | 9
Bead autofluor | 4489 | 5459 | 2800 | 4594 | 6289 | 2533 | 3404 | 9284
Sa RN4220 lethal | -2.0 | 0.2 | 0.5 | 0.3 | 1.7 | -3.8 | 20 | 3.1

#25 CC1CN(C2CCN(S(=O)(=O)c3ccc4ccccc4c3)CC2)CC(C)O1 (configuration not stated)
#26 Cc1onc(-c2c(F)cccc2Cl)c1C(=O)N1C=CC(C(F)(F)Cl)=NCC1
#27 COc1ccc(C2(CNC(=O)c3ccccc3)CCCC2)cc1OC
#28 C[C@]12CC[C@@H]3c4cc(O)c(O)cc4CC[C@H]3[C@@H]1CC[C@@H]2O
#29 CCn1c(SCC(=O)N/N=C/c2ccccc2OCC(=O)O)nnc1-c1ccc(C(C)(C)C)cc1
#30 Cc1ccc(-n2[nH]c(C)c(/C=N/n3c(C)nc4ccccc4c3=O)c2=O)cc1
#31 CC(=NN(c1ccccc1)c1ccccc1)c1ccc(N)cc1
#32 CCCn1c(N)c(Br)c(=O)[nH]c1=O
screen / no. | 25 | 26 | 27 | 28 | 29 | 30 | 31 | 32
PrP UTR inh | -27 | -12 | 9 | -5 | -15 | -7 | . | -23
BJeLR lethal | 3 | -13 | -9 | 8 | -1 | 8 | . | 5
ugtP null kill | 1 | -6 | -5 | . | . | . | 2 | 5
Mtb hypoxia rep | 3 | 4 | 0 | . | . | . | 4 | -2
Mtb hypoxia rep growth | 12 | 7 | 6 | . | . | . | 8 | -5
Bead autofluor | 9574 | ? | 3489 | 4419 | 4023 | 11882 | . | 7107
Sa RN4220 lethal | 0.1 | 5.3 | -1.3 | . | . | . | 4.7 | 3.1

Fetched by compound from the entries so far:
#28 C[C@]12CC[C@@H]3c4cc(O)c(O)cc4CC[C@H]3[C@@H]1CC[C@@H]2O
#27 COc1ccc(C2(CNC(=O)c3ccccc3)CCCC2)cc1OC
#31 CC(=NN(c1ccccc1)c1ccccc1)c1ccc(N)cc1
screen / no. | 28 | 27 | 31
PrP UTR inh | -5 | 9 | .
BJeLR lethal | 8 | -9 | .
ugtP null kill | . | -5 | 2
Mtb hypoxia rep | . | 0 | 4
Mtb hypoxia rep growth | . | 6 | 8
Bead autofluor | 4419 | 3489 | .
Sa RN4220 lethal | . | -1.3 | 4.7

Next part:
#33 COc1cccc(NC(=O)C(NCCc2ccc(S(N)(=O)=O)cc2)c2ccccc2)c1 (configuration not stated)
#34 CCNC(=O)CC1C(=O)N(c2ccc(F)cc2)C(=O)N1CCC(C)C (configuration not stated)
#35 CC(C)CNC(=O)C1C2C=CC(C2)C1C(=O)O (configuration not stated)
#36 Cc1ccc(S(=O)(=O)N(C)c2ccc(OCC(=O)Nc3nc4c(ccc5ccccc54)s3)cc2)cc1
#37 CN(C)CCCNC(=O)C1CCNCC1
#38 CCNC(=O)C1CCCN1S(=O)(=O)c1ccc2ccccc2c1 (configuration not stated)
#39 Cc1ccc(NCc2nnc(SCc3ccc(C#N)cc3)n2Cc2ccco2)c(C)c1
#40 COc1ccc(C2/C(=C(/O)c3ccc(C)cc3)C(=O)C(=O)N2c2ccccn2)cc1 (configuration not stated)
screen / no. | 33 | 34 | 35 | 36 | 37 | 38 | 39 | 40
PrP UTR inh | 6 | -13 | -33 | -15 | -26 | 4 | -4 | -19
BJeLR lethal | 0 | 3 | 10 | 11 | 7 | -2 | 3 | 11
ugtP null kill | 2 | 5 | -4 | 8 | -4 | 3 | 5 | 1
Mtb hypoxia rep | -12 | -4 | 7 | -4 | 15 | 0 | -2 | 9
Mtb hypoxia rep growth | -8 | -1 | 14 | 10 | 5 | 3 | -6 | -1
Bead autofluor | 4412 | 10860 | 20356* | 2496 | 3845 | 6157 | 3510 | 3461
Sa RN4220 lethal | 2.2 | 1.4 | 1.0 | -5.8 | 2.1 | 0.8 | 3.9 | 6.4

#41 Cc1cc(Oc2ccc(C#N)cc2)nc(N2CCOCC2)n1
#42 Cc1cccc(N2C(=O)N3[C@H](c4ccc(F)cc4)[C@@H]4C(=O)N(C5CCCCC5)C(=O)[C@@H]4[C@]3(Cc3ccccc3)C2=O)c1
#43 CNC(=O)c1sc2nc(-c3ccc(OC)cc3)cn2c1C
#44 Cc1cc(C)nc(N(C#N)Cc2ccccc2)n1
#45 O=C(c1n[nH]c2ccccc12)N1CCN(S(=O)(=O)c2ccc(Cl)cc2)CC1
#46 CSCCC(NC(=O)c1occc1C)C(=O)O (configuration not stated)
#47 CC(=O)c1sc(NC(=O)C2(F)C(F)(F)C(F)(F)C(F)(F)C(F)(F)C2(F)F)nc1C
#48 COC(=O)C1(C)NC(c2cccc(C)c2)C2C(=O)N(c3ccc(F)cc3)C(=O)C21 (configuration not stated)
screen / no. | 41 | 42 | 43 | 44 | 45 | 46 | 47 | 48
PrP UTR inh | -16 | -31 | -79 | -20 | . | -22 | -2 | 1
BJeLR lethal | -7 | 20 | 13 | 3 | . | 4 | 25 | 8
ugtP null kill | 3 | . | -13 | 15 | -1 | 25 | 51 | 1
Mtb hypoxia rep | . | . | 1 | . | 12 | -3 | 15 | -23
Mtb hypoxia rep growth | . | . | 3 | . | 7 | -2 | 23 | -8
Bead autofluor | 2105 | 3787 | 6072 | 3189 | ? | 2388 | 10597 | 3781
Sa RN4220 lethal | -3.3 | . | -7.3 | 3.2 | 13 | 30 | 63 | 1.0

#49 COCCNC(=O)C(c1ccc(C)o1)N(C(=O)c1snc(C(N)=O)c1N)c1ccc(C)cc1 (configuration not stated)
#50 CN(Cc1ccc(Cl)cc1)C(=O)COC(=O)CSc1ccc([N+](=O)[O-])cc1
#51 CN1CC(=O)N(CC(=O)Nc2ccc(Br)cc2F)C1=O
#52 CCC(=O)N(c1nnc(SCC(=O)Nc2ccccc2Cl)s1)C1CC1
#53 CCC1CCCC1=NNC(=O)c1ccoc1C (configuration not stated)
#54 Cc1cc(NS(=O)(=O)c2ccc(Nc3nc(-c4sc(NC(=O)c5ccccc5)nc4C)cs3)cc2)no1
#55 CC(=O)c1ccc(NC(=O)Cn2nc(C)c([N+](=O)[O-])c2C)cc1
#56 CCCCCCC1CC(=O)NC(=S)N1 (configuration not stated)
screen / no. | 49 | 50 | 51 | 52 | 53 | 54 | 55 | 56
PrP UTR inh | -20 | -1 | -13 | -12 | . | . | -1 | -22
BJeLR lethal | -9 | . | 3 | . | . | . | -6 | 4
ugtP null kill | -4 | 4 | 6 | 3 | 3 | 44 | 6 | -5
Mtb hypoxia rep | 7 | 11 | 9 | 10 | 0 | 6 | -9 | 15
Mtb hypoxia rep growth | 2 | 6 | -5 | 6 | 3 | 3 | 7 | 13
Bead autofluor | 11061 | 5413 | 4261 | 5505 | . | . | 4307 | 4048
Sa RN4220 lethal | 5.2 | 2.7 | 5.4 | 6.3 | 4.1 | 53 | 2.6 | 3.6

#57 Cc1ccc2[nH]c(=O)c3cc(C(=O)N4CCN(C(=O)c5ccco5)CC4)sc3c2c1
#58 c1ccc(CNc2nc(N3CCOCC3)nc(N3CCOCC3)n2)cc1
#59 CCC(=O)Nc1ccc2c(c1)Cc1cc(NC(=O)CC)ccc1-2
#60 CC(C(=O)OCC(=O)c1cccc([N+](=O)[O-])c1)N1C(=O)C2C3CCC(C3)C2C1=O (configuration not stated)
#61 O=C(Cn1cnc2sc(-c3ccccc3)cc2c1=O)N1CCOCC1
#62 CCOc1ccc(C=NNC(=O)CN2CCCCC2)cc1OCC
#63 Cc1ccc(S(=O)(=O)N2CCCN(C)CC2)cc1
#64 COc1ccc(C(=O)N2CCN(S(=O)(=O)c3ccc(Br)cc3)CC2)cc1
#65 COc1ccc(/C=C(\NC(=O)c2ccccc2)C(=O)NCc2ccco2)cc1OC
#66 CCN(C(=O)c1ccc2c(c1)OCO2)C12CC3CC(CC(C3)C1)C2
screen / no. | 57 | 58 | 59 | 60 | 61 | 62 | 63 | 64 | 65 | 66
PrP UTR inh | -7 | -4 | -27 | -8 | -38 | . | . | -8 | -29 | -1
BJeLR lethal | 11 | -4 | 6 | -2 | -8 | . | 9 | . | -2 | .
ugtP null kill | 8 | 2 | -5 | 6 | 1 | 5 | 9 | 1 | 9 | 14
Mtb hypoxia rep | . | 8 | -1 | -15 | 4 | -6 | -1 | 1 | 13 | 20
Mtb hypoxia rep growth | . | 8 | -4 | -2 | -2 | 9 | 1 | -1 | 6 | 10
Bead autofluor | 4694 | 13017 | 3888 | 2546 | 4255 | . | 4173 | 3555 | 3495 | 4382
Sa RN4220 lethal | 2.8 | 9.8 | 1.9 | -0.1 | -2.1 | 4.1 | 3.3 | 2.5 | -2.7 | 2.3
